SARS PLpro yeast: blocks SARS-CoV papain-like protease in a yeast assay. S. cerevisiae expressing SARS-CoV PLpro, growth rescue; control for the full effect not named in the record. Potency, µM (top dose mostly 32.9 µM), for inactives: at the top dose activity, positive = growth rescue. 0.19% of 330,000 active; active means well fitted rising curve with a large enough effect; inconclusive means small, poorly fitted or top-dose-only effect; inactive means no such curve, though single readings can be large or run the other way; further: 0% is about no effect; nearly all actives have a fitted effect of over 55% in size; growth read by luminescence after 48 h
Lassa entry inh: Lassa virus entry inhibition; Lassa virus pseudotype entry inhibition, cell reporter; control for the full effect not named in the record; Potency, µM (series often up to 37.9 µM), without a hit: top-dose activity change, negative = inhibition, hits mostly inhibitors; AID 540256; 1.2% of 300,000 active; active means well fitted inhibition curve with a large enough effect; inconclusive means small, poorly fitted or top-dose-only effect, or effect the other way; inactive means flat fitted curve, though single readings scatter; tested in HEK293 cells; further: on the % scale 0 is the no-effect control and ±100 the full control effect; nearly all actives have a fitted effect of over 50% in size; luciferase read-out
Cruzain inh noDet: inhibitors of Trypanosoma cruzi cruzain without detergent. P25779. purified cruzain, Z-FR-AMC fluorescence, no detergent. Potency, µM, inactives show max response, negative = inhibition, most hits filed as inhibitors. 2.3% of 200,000 active. AID 1476;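 further: plate controls were enzyme without inhibitor for no effect and buffer without enzyme for full effect; nearly all actives have a fitted effect of over 40% in size; top concentration of the series not given in the record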
Target sequence (P25779 123-467 limits assumed): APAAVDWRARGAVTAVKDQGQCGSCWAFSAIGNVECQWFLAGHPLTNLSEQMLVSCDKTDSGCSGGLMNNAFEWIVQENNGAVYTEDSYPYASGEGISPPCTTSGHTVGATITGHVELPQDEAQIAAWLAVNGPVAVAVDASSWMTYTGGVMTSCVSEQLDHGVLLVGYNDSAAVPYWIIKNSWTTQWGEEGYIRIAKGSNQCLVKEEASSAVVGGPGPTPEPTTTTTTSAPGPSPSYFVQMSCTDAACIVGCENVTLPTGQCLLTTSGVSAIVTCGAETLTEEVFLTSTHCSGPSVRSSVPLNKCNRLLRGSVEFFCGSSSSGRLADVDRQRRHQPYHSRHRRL
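Detergent-free condition (0.00005% Triton X-100) in acetate buffer pH 5.5 with DTT. 1.5 nM enzyme and compound were pre-mixed 15 min, then 2 uM Z-FR-AMC substrate added; reaction progress from fluorescence change between first and third reads (60 s).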
RE007 growth inh: less growth of the S. pombe RE007 Vpr strain; 0.21% of 360,000 active; Potency, µM (highest dose often 92.2 µM), for inactives: top-dose activity change, negative = less growth; S. pombe RE007 Vpr strain, BacTiter-Glo ATP luminescence, 24 h; control for the full effect not named in the record; active = well fitted falling curve with a large enough effect; inconclusive = small, poorly fitted or top-dose-only effect; inactive = no such curve, though single readings can be large or run the other way;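 further: on the % scale 0 is the no-effect control and ±100 the full control effect; nearly all actives have a fitted effect of over 50% in size; the assay follows cell death caused by Vpr and the record does not say whether a fall means rescue or toxicity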
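Fission yeast strain RE007, carrying one chromosomally integrated HIV-1 vpr copy, was seeded at OD 0.01 in PMG+AL medium with 23 nL pinned compound. After 24 h at 30 °C and 99% humidity, viability was read by BacTiter-Glo luminescence.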
StopGo reporter: FMDV 2A StopGo reporter, luciferase signal. human cells with a luciferase reporter of 2A StopGo recoding; control for the full effect not named in the record. Potency, µM (highest dose often 57.9 µM), without a hit: top-dose signal change, negative = less light. 1.2% of 410,000 active; active = well fitted falling curve with a large enough effect; inconclusive = small, poorly fitted or top-dose-only effect; inactive = no such curve, though single readings can be large or run the other way; tested in HEK293T cells; further: on the % scale 0 is the no-effect control and ±100 the full control effect; nearly all actives have a fitted effect of over 45% in size; luciferase light after 4 h
Cruzain inh Det: cruzain (T. cruzi) inhibition with detergent; Potency, µM, inactives show max response, negative = inhibition, most hits filed as inhibitors; 0.43% of 200,000 active; P25779; AID 1478; purified cruzain, Z-FR-AMC fluorescence, 0.01% Triton;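 further: plate controls were neutral wells for no effect and buffer without enzyme for full effect; nearly all actives have a fitted effect of over 40% in size; top concentration of the series not given in the record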
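Compounds were screened in titration against cruzain (1.5 nM) with 0.01% Triton X-100 to counter colloidal aggregation. Activity was the AMC fluorescence increase over 60 s after adding 2 uM Z-FR-AMC at pH 5.5.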
Marburg entry inh: Marburg virus entry inhibition; Marburg virus pseudotyped entry inhibition, cell reporter; control for the full effect not named in the record; about a third of the inactives were read at about 46 µM; Potency, µM (titrated, usually from 37.8 µM), for the others: top-dose activity change, negative = inhibition, most hits filed as inhibitors; 1.8% of 300,000 active; active = well fitted inhibition curve with a large enough effect; inconclusive = small, poorly fitted or top-dose-only effect, or effect the other way; inactive = flat fitted curve, though single readings scatter; tested in HEK293 cells; about a fifth of its hits are not listed in these tables; further: on the % scale 0 is the no-effect control and ±100 the full control effect; luciferase read-out
NS1 inh: influenza NS1 inhibition. S. cerevisiae slowed by influenza A NS1, growth recovery by OD600. Potency, µM (series often up to 46.1 µM), inactives show at the top dose activity, positive = more growth. 0.4% of 270,000 active; active means well fitted rising curve with a large enough effect; inconclusive means small, poorly fitted or top-dose-only effect; inactive means no such curve, though single readings can be large or run the other way; further: nearly all actives have a fitted effect of over 50% in size
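OD600 was taken as the measure of yeast growth restored by compound in an NS1-expressing S. cerevisiae strain. Cells had been washed out of glucose medium and diluted 1:100 into galactose -URA medium, pH 6.0.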
* = called active by the depositor; ? = inconclusive; . = not tested or not shown; & = joins results of further samples; [ ] = remark or other dose. Unless noted, the call rests on the fitted dose curve; in most records, active means well fitted curve in the direction sought with a large enough effect; inconclusive means small, poorly fitted or top-dose-only effect, or another doubt; inactive means no such curve, though single readings can be large; an effect the other way counts as inactive or inconclusive. Potency means the concentration at half of the fitted maximal effect.

SMILES	SARS PLpro yeast	Lassa entry inh	Cruzain inh noDet	RE007 growth inh	StopGo reporter	Cruzain inh Det	Marburg entry inh	NS1 inh
CCN(CC)c1ccc(C=Nc2ccccc2C)c(O)c1	-0.3%	9.5%	-3.9%	3.5%	25.6%	-11.3%	-19.1%	-0.6%
CCc1nc(SCc2cc(=O)c3cc(C)ccc3[nH]2)n[nH]1	.	-9.7%[46.1 µM]	0.5%	.	-9.0%	-0.2%	.	.
Cc1cc(C(=O)CSc2nnc(Nc3ccccc3F)s2)c(C)n1CC1CCCO1 (stereo not given)	1.0%	-6.0%	-19.4%	-0.6%	?	-2.7%	-18.8%&-18.8%	4.7%
COc1ccc(-c2ccc(OC)c([C@H]3[C@H]4C=CC[C@@H](C)[C@@H]4C(=O)N3Cc3ccccc3)c2)cc1OC	3.4%	.	.	0.5%	0.1%	.	.	6.2%
Cc1cccc(NC(=S)NCC(c2cccnc2)N(C)C)c1C (stereo not given)	13.8%	3.2%	-15.1%	5.8%	0.5%	-0.8%	16.4%	0.3%
Cc1nc2cc3ccccc3cc2n1C	-58.2%	9.6%	?	-15.3%	39.8%[activator]	-18.7%	?	-37.2%
COC(c1ccccc1)c1nnc(CCC(=O)N2CCN(Cc3cccs3)CC2)o1 (stereo not given)	0.2%	4.3%[46.1 µM]	.	0.7%	21.5%	.	2.1%[46.1 µM]	1.1%
CCC(CO)NCc1ccc(Br)cc1 (stereo not given)	0.9%	.	.	-0.9%	-6.0%	.	.	3.7%
CC(OC(=O)CN(C)S(=O)(=O)c1ccc(Cl)cc1)C(=O)Nc1cccc(Cl)c1 (stereo not given)	-1.3%	-2.7%	4.2%	-1.5%	?	-8.3%	0.9%	-73.3%
Cc1ccc(N2CCN(CCc3nc4cc(NC(=O)c5ccco5)ccc4n3C)CC2)cc1	-5.3%	-17.3%	3.8%	-4.7%	?	-1.3%	6.7%	-18.6%
CC(=O)Nc1ccc(NC(=O)Cn2ccc([N+](=O)[O-])n2)cc1	-1.8%	-9.9%[46.1 µM]	.	-2.7%	-10.9%	.	16.9%[46.1 µM]	5.3%
CCOC(=O)C1(CCOc2ccccc2)CCN(Cc2ccc(O)c(OCC)c2)CC1	-4.4%	?	.	-14.7%	-25.6%	.	11.2µM*	1.1%
Cc1cc(C)c(C#N)c(Nc2ccccc2F)n1	15.4%	.	.	-8.2%	-7.4%	.	.	-3.5%
O=C(Cn1nc(CNc2ccc(Br)cc2)[n+]2c1CCCCC2)c1ccc([N+](=O)[O-])cc1	-2.0%	-2.4%	.	6.5%	-11.7%	.	-17.9%	4.9%
O=C(CN1C(=O)CCC1=O)Nc1nc(-c2ccc(Cl)s2)cs1	15.3%	9.6%&8.2%	-9.8%	-18.6%	-13.8%	-9.8%	-5.8%&-0.3%	2.4%&6.2%
CCN(CC)CCN(Cc1cc2cc3c(cc2[nH]c1=O)OCO3)C(=S)NCCOC	2.1%	.	.	1.4%	-19.7%	.	.	11.2%
Cc1ccc(-c2nnc(SCC(=O)N3CCN(c4ccccc4)CC3)o2)cc1	7.7%	2.2%	10µM*	11.5%	14.4%	-1.3%	?	-2.2%
CCCNC(=O)[C@H](Cc1c[nH]c2ccccc12)NC(=O)c1ccccc1Cl	26.1%	18.6%	-2.5%	5.6%	44.2%[activator]	-2.1%	?	10.0%
CCc1ccccc1NC(=O)Cc1ccc(NC(=O)N2CCCCc3ccccc32)cc1	.	?	5.1%	.	-17.0%	-5.6%	.	.
CCOC(=O)CN1C(=O)C(=O)c2cccc(C)c21	-2.4%	?	12.5%	2.4%	6.5%	0.1%	-36.3%	-9.8%
CC(C)CCNC(=O)Cn1nc(N2CCN(c3ccccc3)CC2)ccc1=O	.	-0.4%[46.1 µM]	1.7%	.	-13.7%	-0.9%	.	.
Cc1cccc(N2C(=O)Cc3ccccc3C2=O)c1	1.2%	10.4%	.	0.9%	-15.6%	.	15.8%[46.1 µM]	13.8%
COc1ccc([C@@H]2CC(=O)c3c(O)cc(O)cc3O2)cc1O	.	.	2.2%&-8.0%	5.3%[18.4 µM]	43.9%[activator]	0.4%&0.3%	?	.
COc1ccccc1C(=O)NCC(=O)N1CCN(S(=O)(=O)c2ccc3c(c2)OCCO3)CC1	0.1%	6.9%	.	4.5%	-12.5%	.	1.2%[46.1 µM]	.
O=C(N/N=C/c1ccc[nH]1)c1ccc2c(c1)OCO2	0.2%	-9.0%	.	-17.1%	34.2%[activator]	.	0.2%[46.1 µM]	.
COc1ccc(CNC(=O)C2C3C=CC4(CN(Cc5cccnc5)C(=O)C24)O3)cc1 (stereo not given)	1.6%	1.2%	-4.4%	8.5%	0.1%	4.7%	4.5%[46.1 µM]	-12.4%
CP(=O)(Nc1cc(Cl)ccc1Cl)c1nc2c(s1)CCCC2 (stereo not given)	-4.5%	.	.	18.8%	-2.6%	.	.	-12.4%
CCN(CC)c1ccc(/C=N/Nc2nc(C)cc(C)n2)c(O)c1	5.01µM*	?	-27.1%	-24.6%	0.0%	-10.3%	6.51µM*	-17.3%
COc1ccc(OC)c(CC(NC(C)=O)C(=O)NC2CCN(c3c(Cc4ccccc4)c(C)nc4ncnn34)CC2)c1 (stereo not given)	22.0%	-3.2%	?	0.0%	-25.2%	-4.2%	-13.5%	-6.2%
COc1ccccc1NC(=O)c1ccc(NC(=O)CSc2nncn2C)cc1	-24.9%	4.8%	-4.4%	17.0%	-22.8%	-0.5%	29.5%	4.4%
Cc1c(N=Cc2nc3ccccc3n2C)c(=O)n(-c2ccccc2)n1C	1.6%	25.6%	6.1%	4.3%	3.1%	-2.0%	25.7%	-37.9%
CN(C)c1ccc(/C=C2\CCCCC2=O)cc1	-16.1%	.	0.0%	-26.2%	12.4%	-15.2%	4.8%	-9.9%
CCOC(=O)c1sc(NC(=O)Nc2ccccc2Cl)cc1C	-15.9%	7.94µM*	-16.5%	-28.1%	-0.5%	-8.0%	?	-1.0%
CN1CCN(NC(=O)Nc2ccc(Br)cc2)CC1	-2.3%	.	.	-3.7%	14.8%	.	.	7.8%
Cc1ccsc1/C=N/NC(=O)c1ccc([N+](=O)[O-])cc1	1.1%	1.8%	.	12.1%	62.3%[activator]	.	-3.2%[46.1 µM]	.
O=C(Cn1nc(-c2ccccc2)c2cnc3ccc(F)cc3c21)NC1CCCC1	.	-14.1%[46.1 µM]	-3.2%	.	13.1%	-1.6%	.	.
O=C(CC(Nc1ccccc1)C(=O)O)c1ccccc1 (stereo not given)	3.9%	?	-8.0%	2.7%	19.0%	-5.0%	-5.9%	-55.5%
Cc1ccc(C)c(OCCC(=O)OCC(=O)N(C)c2c(N)n(Cc3ccccc3)c(=O)[nH]c2=O)c1	2.5%	-5.1%	.	-0.2%	-21.6%	.	1.2%[46.1 µM]	.
Cn1c(N)c(C(=O)c2ccccc2)c(=O)n(C)c1=O	-1.6%	2.0%	-6.5%	8.0%	-14.3%	-1.1%	0.4%[46.1 µM]	-4.8%
COc1ccccc1/C=C1\SC(N2CCC(C)CC2)=NC1=O	-5.8%	.	.	-11.2%	77.4%[activator]	.	.	-4.8%
CCN1CCN(C(=S)Nc2cccc([N+](=O)[O-])c2)CC1	0.4%	29.0%	5.7%	-11.3%	6.1%	-0.3%	5.3%	-8.3%
CCc1cccc(C)c1NC(=O)C1CCCN1S(=O)(=O)c1cccc2nsnc12 (stereo not given)	.	-3.5%[46.1 µM]	4.2%	.	-16.4%	-0.5%	8.1%[46.1 µM]	.
Cc1ccccc1NC(=O)NCCCN1CCN(c2ccccc2F)CC1	.	11.7%[46.1 µM]	-4.9%	.	.	-0.4%	11.5%[46.1 µM]	.
NNC(=O)c1oc2nc(-c3ccccc3)cc(-c3ccco3)c2c1N	-2.7%	-2.0%	.	-0.9%	-7.4%	.	-18.1%[46.1 µM]	11.5%
O=C(CN1C(=O)NC2(CCCCCC2)C1=O)Nc1ccc([N+](=O)[O-])cc1	-2.6%	-8.1%	.	10.9%	?	.	?	.
Cc1cccc(-n2nnnc2-c2cnccc2C(F)(F)F)c1C	0.4%	-6.5%	.	1.3%	-18.5%	.	0.0%[46.1 µM]	6.6%
CCCCC(=O)Nc1ccc(NC(=S)NC(=O)CCCCl)cc1OC	15.2%	0.4%	-14.3%	-0.7%	13.7%	-8.8%	?	21.2%
COc1ccccc1-n1c(SCC(=O)N2CCCCC2)nc2cccnc21	0.1%	?	-7.7%	18.3%	-6.6%	2.2%	14.1%[46.1 µM]	1.1%
COc1ccc(C(=O)c2c(O)cc(-c3ccc(OC)cc3)oc2=O)cc1	-2.5%	1.6%	0.2%	-23.9%	2.1%	-6.6%	-3.3%	-32.4%
Cn1/c(=N/NC(=O)c2ccccc2F)sc2ccccc21	-0.4%	?	.	9.0%	20.7%	.	?	.
O=C(N/N=C\c1ccccc1F)c1ccc(-c2ccccc2)cc1	0.0%	-0.7%[46.1 µM]	.	15.3%	8.2%	.	24.9%[46.1 µM]	-0.6%
CCOC(=O)Cc1csc(NS(=O)(=O)c2ccc(C(F)(F)F)cc2)n1	0.3%	3.1%	.	-13.9%	-6.4%	.	0.0%	3.3%
C=CCn1c(=NC(=O)C2COc3ccccc3O2)sc2cccc(OC)c21 (stereo not given)	-0.5%	.	.	-1.3%	0.0%	.	.	0.8%
COc1cccc(C2CC(C(F)(F)F)n3ncc(C(=O)NCC4CCCO4)c3N2)c1 (stereo not given)	1.4%	6.3%	?	12.9%	.	4.0%	-3.5%	-0.5%
Cc1c(N=C2NC(=O)C(CC(=O)Nc3ccc(Cl)cc3)S2)c(=O)n(-c2ccccc2)n1C (stereo not given)	1.1%	1.1%	23.0%	-1.1%	0.0%	7.4%	16.4%	-14.3%
COc1cc(/C=N/NC(=O)CC#N)ccc1Oc1nc(Cl)ncc1F	3.5%	.	.	0.2%	-6.1%	.	.	20.2%
Cc1ccc(/C=C(\C#N)C(=O)Nc2cccc3ncccc23)o1	1.9%	7.5%	-3.8%	-21.3%	0.0%	-9.0%	?	21.8%

Rows are unselected; overall some 4.7% were active at least once.
